Vaccinia mCherry: inhibitors of vaccinia virus infection (mCherry reporter signal); Potency, µM (top dose mostly 36.5 µM), without a hit: at the top dose activity change, negative = inhibition, usual class: inhibitors; 310,000 tested, 0.63% active; Vaccinia virus mCherry reporter infection, fluorescence; about a quarter of the inactives have no number; active = well fitted inhibition curve with a large enough effect; inconclusive = small, poorly fitted or top-dose-only effect; inactive = no such curve, though single readings can be large or run the other way; tested in A549 cells; further: nearly all actives have a fitted effect of over 35% in size; inactives centre near -10
Vaccinia Venus: inhibitors of vaccinia virus (Venus reporter) | AID 720580 | Vaccinia virus Venus reporter expression, fluorescence | Potency, µM (top dose mostly 36.5 µM), inactives show at the top dose activity change, negative = inhibition, most hits filed as inhibitors | 330,000 tested, 0.46% active; active means well fitted inhibition curve with a large enough effect; inconclusive means small, poorly fitted or top-dose-only effect; inactive means no such curve, though single readings can be large or run the other way; tested in A549 cells; further: nearly all actives have a fitted effect of over 30% in size; inactives centre near -10
Starred values were filed as active, the others as inactive; i = inactive; ? = inconclusive; nt = no result given; & = joins results of further samples; [ ] = remark or other dose. On the % scale 0 is the no-effect control and ±100 the full control effect; potency means the concentration at half of the fitted maximal effect.

SMILES	Vaccinia mCherry	Vaccinia Venus
CC(C)C(=O)N1CCC1(C)C(=O)Nc1ccc2[nH]ccc2c1 (centres undefined)	2.4%	-2.3%
O=C(NCCc1ccc(Cl)cc1)C1CCN(S(=O)(=O)c2ccc(-n3cnnn3)cc2)CC1	-22.7%	?
O=C(c1ccco1)N1CCN(C(=S)Nc2ccccc2Cl)CC1	-3.5%	-13.2%
CN(CCNC(=O)C1CC(=O)N(c2ccc(F)c(Cl)c2)C1)Cc1ccccc1 (centres undefined)	-11.6%	-25.3%
O=C(CN1C(=O)c2ccccc2S1(=O)=O)NC(Nc1ccccc1F)C(Cl)(Cl)Cl (centres undefined)	-4.9%	4.5%
COc1ccc(C2=NOC(C(=O)Nc3cccnc3)C2)cc1OC (centres undefined)	-22.9%	-10.2%
Cc1cc(-n2cnnn2)ccc1C(C)C	i	-10.0%
O=C1OCCN1C(=O)[C@H]1[C@H](c2ccc(Cl)cc2)C(c2ccc(F)cc2)=NN1c1ccccc1	?	-15.6%
COc1ccc(OC)c2c1CCC1NCCOC21 (centres undefined)	-23.9%	-3.5%
Cc1nc2ccc(S(=O)(=O)N(CC(=O)Nc3ccc(F)cc3F)Cc3ccccc3)cc2s1	-6.1%	-15.2%
Cc1cccc(NC(=O)CSc2ncnc3sc(C)cc23)c1	-12.2%	-5.6%
CCCn1c(N)c(C(=O)COC(=O)c2c(C)noc2C)c(=O)n(C)c1=O	-17.4%	-8.0%

In the list so far, 2 have two or more sulfur atoms:
SMILES	Vaccinia mCherry	Vaccinia Venus
Cc1nc2ccc(S(=O)(=O)N(CC(=O)Nc3ccc(F)cc3F)Cc3ccccc3)cc2s1	-6.1%	-15.2%
Cc1cccc(NC(=O)CSc2ncnc3sc(C)cc23)c1	-12.2%	-5.6%

Further records.
SMILES	Vaccinia mCherry	Vaccinia Venus
CC(Sc1nc(N)cc(=O)[nH]1)C(=O)N1CCOCC1 (centres undefined)	-2.6%	-12.0%
c1ccc(Oc2cc(-n3cccn3)ncn2)cc1	-14.6%	-1.2%
N#CC1(Nc2ccc3c4c(cccc24)CC3)CCCCC1	?	-18.1%
CCOC(=O)C1=C(C)N=c2s/c(=C\c3ccc(OC(C)=O)c(OCC)c3)c(=O)n2C1/C=C/c1ccccc1 (centres undefined)	-15.0%	-5.3%
CC(C)c1ccc(NC(=O)C(c2ccccc2)N2CCN(C(=O)c3ccco3)CC2)cc1 (centres undefined)	i	?
CC(=O)c1cccc(NS(=O)(=O)c2c(C(=O)N3CCOCC3)c(C)n(C)c2C)c1	i	-13.8%
C[C@H](CO)N1C[C@H](C)[C@@H](CN(C)C(=O)Nc2ccccc2)Oc2c(NS(=O)(=O)c3cn(C)cn3)cccc2C1=O	i	-20.7%
CCc1ccc(NC(=O)CCn2nc(C)c(S(=O)(=O)N3CCCCC3)c2C)cc1	-3.1%[7.34 µM]	-13.4%[7.34 µM]
COC(=O)NC(NC(=S)Nc1ccc([N+](=O)[O-])cc1)C(Cl)(Cl)Cl (centres undefined)	?	?
Cc1ccc(CNC(=O)CCCCCn2c(=O)c3sccc3n(CC(=O)N3CCCCC3C)c2=O)cc1 (centres undefined)	-18.5%	-8.7%
COc1ccccc1C1C=C(c2ccc(F)cc2)Nc2nc(-c3ccc(Cl)cc3)nn21 (centres undefined)	-6.1%	-16.5%
CC(Nc1ccc(F)cc1F)C(=O)NC(=O)NC1CCCCC1 (centres undefined)	6.3%	0.6%

An excerpt of these results, comma-delimited:
molecule,Vaccinia mCherry,Vaccinia Venus
CC(Sc1nc(N)cc(=O)[nH]1)C(=O)N1CCOCC1 (centres undefined),-2.6%,-12.0%
c1ccc(Oc2cc(-n3cccn3)ncn2)cc1,-14.6%,-1.2%
N#CC1(Nc2ccc3c4c(cccc24)CC3)CCCCC1,?,-18.1%
CCOC(=O)C1=C(C)N=c2s/c(=C\c3ccc(OC(C)=O)c(OCC)c3)c(=O)n2C1/C=C/c1ccccc1 (centres undefined),-15.0%,-5.3%
CC(C)c1ccc(NC(=O)C(c2ccccc2)N2CCN(C(=O)c3ccco3)CC2)cc1 (centres undefined),i,?
CC(=O)c1cccc(NS(=O)(=O)c2c(C(=O)N3CCOCC3)c(C)n(C)c2C)c1,i,-13.8%
C[C@H](CO)N1C[C@H](C)[C@@H](CN(C)C(=O)Nc2ccccc2)Oc2c(NS(=O)(=O)c3cn(C)cn3)cccc2C1=O,i,-20.7%

Going on with the list:
SMILES	Vaccinia mCherry	Vaccinia Venus
COCCNC(=O)C(OC(=O)CC1Sc2ccccc2NC1=O)c1ccncc1 (centres undefined)	-15.6%	-4.2%
CCn1cc(C(=O)NCCCOC)c2cc(OC)c(OC)cc2c1=O	-0.1%	7.4%
Cc1ccc(S(=O)(=O)N(CC(=O)NCCSc2ccccn2)c2cc(C)cc(C)c2)cc1	nt	-23.9%
c1ccc(CNc2ncn[nH]2)cc1	i	-7.0%
CCc1nc2ccc(Br)cc2c(=O)n1-c1ccccc1C(F)(F)F	-18.1%	-5.5%
COc1cccc(CNCC(=O)NC(=O)NC2CCCC2)c1	-10.1%	-7.5%
CCOc1ccccc1NC(=O)Cn1c(=O)n(-c2ccc(Cl)cc2)c(=O)c2oc3ccccc3c21	i	-4.9%
CCN(CC)C(=O)C(c1ccccc1)S(=O)(=O)N1CCOCC1 (centres undefined)	-15.2%	-18.1%
NC(=O)c1nn(-c2ccc(Oc3ccccc3)cc2)c(=O)cc1O	i	-2.3%
O=C(NCCS(=O)(=O)c1ccc(Br)cc1)c1ccccc1	i	-18.6%
CC(=O)N(CCO)Cc1cc2cc(C)cc(C)c2[nH]c1=O	-18.4%	-0.6%
CC1(C(=O)NCc2ccccc2)CN(S(C)(=O)=O)CC(=O)N1CCCN1CCOCC1 (centres undefined)	-4.6%	-6.0%
Cc1ccc(C(=O)COc2ccccc2-c2ccccc2)cc1C	-9.6%	-5.4%
C#CCNC(=O)C1=C[C@H](C2CC2)C[C@H](OCCCCO)O1	i	-9.6%
CCc1nccn1S(=O)(=O)c1cc(OC)c(Cl)cc1OC	-7.5%	-11.8%
Nc1nc(Cl)nc2c1ncn2[C@H]1C[C@H](O)[C@@H](CO)O1	?	?
COc1cc(NS(=O)(=O)c2ccc(NC(=O)c3cccs3)cc2)nc(OC)n1	14.3%	-1.2%
COc1ccc(Cn2ccn(Cc3cccc(OC)c3)c(=O)c2=O)cc1	7.1%	5.7%
N#Cc1ccc(CSc2nnc(Cc3cccs3)n2Cc2ccco2)cc1	nt	0.1%
COc1cc(OC)cc(C(=O)NC(=S)Nc2ccc3c4c(cccc24)CC3)c1	nt	-7.1%
CC(C)(C)c1ccc(-n2ncc3c2CCCC3NC(=O)c2cnccn2)cc1 (centres undefined)	?	-20.9%
CCCN1CCCc2ccccc21	-23.0%	-10.6%
CN(C)/C=C1\C(=O)ON=C1c1ccccc1	i	-7.9%
CCc1ccc(NC(=O)C2CCCN(S(=O)(=O)c3c(C)[nH]c(=O)[nH]c3=O)C2)cc1 (centres undefined)	-14.6%&-1.7%	-3.4%&0.4%
O=C(CSc1nnnn1-c1ccc(F)cc1)Nc1ccccc1F	-10.3%	-3.4%
COc1ccc2occ(C(C)=O)c2c1	i	-10.1%
CC(C)C(NC(=O)c1ccccc1F)C(=O)Nc1nccs1 (centres undefined)	i	-16.2%
Cc1ccc(-c2nnc(-c3cccc4ccccc34)o2)cc1	-0.3%	-12.7%
COc1ccccc1-c1nnc2sc(-c3ccc(N(C)C)cc3)nn12	?	?
C/C=C/c1ccc(OCCCCN2C(=O)NC(C)(C)C2=O)c(OC)c1	-4.4%	-26.9%
Cc1ccc(NC(=O)CSc2nn(-c3ccccc3)c(=S)s2)cc1S(=O)(=O)N(C)C	?	?
O=C(COc1ccccc1F)Nc1ccc2[nH]c(=O)[nH]c2c1	i	-9.4%
COc1ccc2c(c1)CCc1cnoc1-2	-14.9%	-5.1%
COc1ccc(C(C)NC(=O)c2ccncc2)cc1OC (centres undefined)	-8.5%	2.0%
COc1ccc(Cc2nnc(SCC(=O)NC3(C#N)CCCCC3)n2N)cc1	-19.7%	-6.2%
O=C1CC(SCc2nc3ccccc3[nH]2)C(=O)N1c1ccc(Cl)cc1 (centres undefined)	-11.6%	3.2%
COc1ccc(C2=NOC(C(=O)Nc3cc(C)nn3-c3ccccc3)C2)cc1OC (centres undefined)	i	-0.4%
CC(=O)c1cc2c(cc1NS(=O)(=O)c1ccc(F)cc1)OCO2	-13.6%	-8.1%
COc1ccc(-c2ocnc2C(=O)N2CCN(C(=O)C(c3ccccc3)c3ccccc3)CC2)cc1	-4.6%	-28.5%
S=c1[nH]nc(-c2ccccc2)n1/N=C/c1ccc(-c2ccccc2Cl)o1	?	12.4%
O=C(O)CCNc1ccc2c(c1)OCCO2	nt	-5.0%
C[C@@H](O)CNC(=O)c1[nH]cnc1C(=O)N[C@H](C)c1ccccc1	-1.8%	-17.5%
C/C(=N\NC(=S)NCCc1ccccc1)c1cccc(Br)c1	-19.6%	-17.1%
O=C(CO/N=C/c1ccccc1O)N1CCc2ccccc21	-2.7%	-5.6%
c1ccc(C2=NC(c3ccccc3)N=C(c3ccccc3)N2)cc1	nt	?
CCOC(=O)c1c(/N=C/N(C)C)sc2c1CCC2	-14.4%	-23.4%
N#CC1(C#N)CC(C=O)=C(N)C1(C#N)CC(=O)c1ccc(F)cc1 (centres undefined)	-0.4%	30.5%[activator]
Cc1ccc(OCC(=O)Nc2ccc(F)cc2)cc1	-21.2%	-17.3%
O=[N+]([O-])c1ccccc1CNCCc1c[nH]c2ccccc12	-5.0%	-15.1%
Cc1noc(C)c1NC(=O)Nc1ccc2c(c1)C(=O)N([C@H](C)CO)C[C@H](C)[C@@H](CN(C)C(=O)Nc1ccc(C(F)(F)F)cc1)O2	i	-18.9%
CCOC1=C2[C@H](c3ccccc3Cl)N(S(=O)(=O)c3ccc(C)cc3)C[C@H]2C(C#N)(C#N)C(C#N)(C#N)C1	4.0%	0.7%
CCOC(=O)c1nccnc1C(=O)Nc1ccc(C(F)(F)F)cc1	12.2%	-0.1%
COc1ccc(/C(N)=N/OC(=O)Oc2ccccc2)cc1	-3.2%	-8.7%
CCOC(=O)c1ccc(N(CC2CO2)S(=O)(=O)c2ccc(C)cc2)cc1 (centres undefined)	i	-4.3%
CCN(CC)C(=O)C1CCN(S(=O)(=O)c2ccc3c(c2)CCCN3C(=O)C2CCC2)CC1	-11.1%	-0.4%
CCOc1cc(C(=O)OCc2cc(=O)n3nc(C4CC4)sc3n2)cc(OCC)c1OCC	14.7%	-5.3%
S=C(NCc1ccccc1)N1CCN(C2CCCCC2)CC1	-19.8%	-11.4%
Cc1cc(C)c(S(=O)(=O)N2CCN(C(=O)c3cc4ccccc4o3)CC2)c(C)c1	-13.6%	-20.7%
O=C(Nc1cc(Cl)ccc1Cl)C1CC(=O)N(c2ccccc2)C1 (centres undefined)	-7.1%	-7.5%
COCCCNC(=O)/C(=C\c1cccn1C)NC(=O)c1cccs1	-2.7%	2.6%

(cont.)
SMILES	Vaccinia mCherry	Vaccinia Venus
CCSc1nc2n(n1)C(c1ccc(C(=O)O)cc1)C(C(=O)Nc1ccccc1C)=C(C)N2 (centres undefined)	-1.6%	6.2%
CCCn1c(SCC(=O)NC)nc2sc3c(c2c1=O)CCC3	67.4%[activator]	1.0%
O=C(c1ccc(Cl)c(F)c1F)N1CCOCC1	i	-13.8%
C[C@]12CCC3C(CCC4=C/C(=N/OCC(=O)NC(CCC(=O)O)C(=O)O)CC[C@@]43C)C1CCC2O (some centres undefined)	i	-17.5%
C[C@@H](CN1C2=NC[C@H](Cc3ccccc3)N2C[C@H]1Cc1ccc(O)cc1)NC(=O)CCC1CCCCC1	-29.2%	?
Cc1ccc(N/C=C2\CCCCC2=O)nc1	-11.9%	-6.2%
O=C(NCC(c1ccco1)N1CCc2ccccc2C1)c1cccc(F)c1 (centres undefined)	-5.4%	-5.1%
Cc1cc(C(=O)CCC(=O)Nc2ccc(C(N)=O)cc2)c(C)s1	-5.9%	-20.1%
CN1CCN(C(=O)C2CCN(S(=O)(=O)c3ccc4c(c3)oc(=O)n4C)CC2)CC1	-14.5%	-13.3%
CCOC(=O)COn1c(-n2nc(C)cc2C)nc2ccccc2c1=O	i	-14.1%
CC(=O)c1ccc(NS(=O)(=O)c2ccc3c(c2)NC(=O)CCS3)cc1	-9.1%	5.5%
Cc1cccc(Nc2nc(-c3ccc(O)c(O)c3)cs2)n1	?	0.2%
CC1CCCCC1NC(=O)C1CCN(S(=O)(=O)N2CCCCCC2)CC1 (centres undefined)	-11.0%	-5.8%
COc1ccc(-c2cc(-c3ccccc3)nc(SCC(=O)Nc3ccccc3F)c2C#N)cc1	-18.7%	-23.5%
COc1ccc(S(=O)(=O)N2CCC(C(=O)N[C@@H](C)C(=O)NC3CCCC3)CC2)cc1	-13.5%[7.34 µM]	-0.5%[7.34 µM]
CN1C(=O)/C(=C/c2ccc(O)c([N+](=O)[O-])c2)NC1=S	-18.9%	-24.0%
C=C(C)Cn1c(SCC(=O)Nc2cccc(Cl)c2)nc2sc3c(c2c1=O)CCCC3	-16.1%	-10.6%
c1ccc(CCCNc2ncnc3nc[nH]c23)cc1	-10.4%	-11.8%&-18.2%
COc1ccc(NC(=O)CCCc2nnc3n(C(C)C)c(=O)c4sccc4n23)cc1Cl	-16.3%	-7.9%
Cc1ccc(S(=O)c2snnc2C)cc1 (centres undefined)	?	?
Cc1cccc(OCc2nnc(SCC(=O)NCCc3ccccc3)o2)c1	-9.4%	1.8%
O=C(Oc1ccc(N2C(=O)CCC2=O)cc1)c1ccccc1Cl	i	-9.9%
CC1CC(C)CN(S(=O)(=O)c2ccc(C(=O)Nc3nnc(-c4cccs4)o3)cc2)C1 (centres undefined)	-29.6%	-22.7%
CCCN(CCC)S(=O)(=O)c1ccc2c(c1)N(CC(=O)NCc1ccc(F)cc1Cl)C(=O)CS2	-18.7%	-8.9%

Source: PubChem BioAssay (National Center for Advancing Translational Sciences (NCATS))
